Env fusion inh: HIV envelope-mediated fusion inhibition; HeLa-JRFL Env/CEM21 cell fusion, luciferase; inhibition, % at 12.3 µM; 360,000 tested, 1.1% active;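 active = mean replicate inhibition score of at least 50 and every replicate individually at or above 50; inconclusive = only one of the two criteria met; inactive = mean below 50 and not all replicates reaching 50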;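 note: 0% = plate neutral controls and 100% = maraviroc near 300 nM; one replicate is shown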
UUG fidelity: modulators of start codon recognition fidelity in yeast. S. cerevisiae UUG-firefly luciferase reporter, luminescence/redox ratio. activity score, % at 18.7 µM. 350,000 tested, 0.13% active;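 active = replicate mean at a twofold rise or more, about +100% in these data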;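 note: firefly luciferase made from a UUG start codon reports start codon fidelity; reporter light over untreated wells divided by growth signal over untreated wells; some hits fall short of that in this replicate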
* = called active by the depositor; [ ] = another dose, or the depositor's remark. This is a subset; rates above refer to the full screens.

The first 2 compounds (preview)
`CC(=O)N(C)C[C@H]1Oc2ncc(-c3ccc(C)cc3)cc2C(=O)N([C@H](C)CO)C[C@@H]1C` gave Env fusion inh -4.4[16.7 µM] and UUG fidelity -22.8.
For O=C(N[C@@H]1CC[C@H](CCNC(=O)C2CC2)O[C@@H]1CO)c1ccccn1 the results were Env fusion inh 4.2[16.7 µM] and UUG fidelity -4.8.

Results (from the top)
`CC(=O)N(C)C[C@H]1Oc2ncc(-c3ccc(C)cc3)cc2C(=O)N([C@H](C)CO)C[C@@H]1C` gave Env fusion inh -4.4[16.7 µM] and UUG fidelity -22.8.
For O=C(N[C@@H]1CC[C@H](CCNC(=O)C2CC2)O[C@@H]1CO)c1ccccn1 the results were Env fusion inh 4.2[16.7 µM] and UUG fidelity -4.8.
Screening CCNC(=O)C[C@@H]1CC[C@@H]2[C@@H](COc3ccc(NC(=O)c4ccc(F)cc4)cc3C(=O)N2C)O1 returned Env fusion inh -14.6[16.7 µM] and UUG fidelity -0.2.
`COc1ccccc1S(=O)(=O)Nc1ccc2c(c1)OC[C@@H](C)NC[C@H](C)[C@@H](OC)CN(C)C2=O` gave Env fusion inh 20.0[16.7 µM] and UUG fidelity -8.5.
Cc1noc(C)c1NC(=O)N(C)C[C@H]1Oc2ncc(C#CC3CCCC3)cc2C(=O)N([C@@H](C)CO)C[C@H]1C was read as Env fusion inh -14.2[16.7 µM] and UUG fidelity 12.4.
Cc1ccc(S(=O)(=O)N[C@@H]2CC[C@H](CC(=O)N3CCN(c4ccccc4)CC3)O[C@H]2CO)cc1 was read as Env fusion inh 2.3[16.7 µM] and UUG fidelity 0.1.
For O=C(N[C@@H]1CC[C@@H](CC(=O)N2CCCCC2)O[C@@H]1CO)c1ccccn1 the results were Env fusion inh 7.4[16.7 µM] and UUG fidelity -9.5.
For C[C@H](CO)N1C[C@H](C)[C@@H](CN(C)CC2CC2)Oc2c(NS(=O)(=O)c3ccc(Cl)cc3)cccc2C1=O the results were Env fusion inh -21.9[16.7 µM] and UUG fidelity 2.3.
`C[C@@H]1CCCCO[C@H](CN(C)C(=O)c2ccncc2)[C@H](C)CN([C@@H](C)CO)C(=O)c2cc(NC(=O)CCC(F)(F)F)ccc2O1` gave Env fusion inh -5.1[16.7 µM] and UUG fidelity 5.2.
For Cc1ccc(S(=O)(=O)N(C)C[C@H]2Oc3ccc(NC(=O)Nc4cccc5ccccc45)cc3CC(=O)N([C@@H](C)CO)C[C@@H]2C)cc1 the results were Env fusion inh 28.4[16.7 µM] and UUG fidelity 2.7.
Screening COc1ccccc1NC(=O)N(C)C[C@H]1Oc2ncc(Br)cc2C(=O)N([C@H](C)CO)C[C@@H]1C returned Env fusion inh 1.0[16.7 µM] and UUG fidelity 17.2.
For C[C@@H]1CCCCO[C@@H](CN(C)S(=O)(=O)c2cn(C)cn2)[C@H](C)CN([C@@H](C)CO)C(=O)c2cc(N(C)C)ccc2O1 the results were Env fusion inh 13.1[16.7 µM] and UUG fidelity 4.8.
COC(=O)C[C@@H]1C[C@@H]2c3cc(NC(=O)Nc4ccc(C(F)(F)F)cc4)ccc3O[C@@H]2[C@H](CO)O1 was read as Env fusion inh 5.2[16.7 µM] and UUG fidelity -15.0.
For CCCC#Cc1cnc2c(c1)C(=O)N([C@@H](C)CO)C[C@H](C)[C@@H](CN(C)C(=O)c1cccc(F)c1)O2 the results were Env fusion inh 1.2[16.7 µM] and UUG fidelity 4.9.
Screening C[C@H](CO)N1C[C@H](C)[C@@H](CN(C)C)Oc2cc(C3=CCCC3)ccc2S1(=O)=O returned Env fusion inh 11.9[16.7 µM] and UUG fidelity -9.8.
Screening Cc1noc(C)c1NC(=O)Nc1ccc2c(c1)C(=O)N([C@@H](C)CO)C[C@@H](C)[C@H](CN(C)C(=O)Nc1ccccc1)O2 returned Env fusion inh 2.0[16.7 µM] and UUG fidelity -23.5.
Screening COc1ccc(NC(=O)Nc2ccc3c(c2)C(=O)N([C@H](C)CO)C[C@H](C)[C@H](CN(C)Cc2ccc(Oc4ccccc4)cc2)O3)cc1 returned Env fusion inh -6.4[16.7 µM] and UUG fidelity 9.2.
CC(=O)N(C)C[C@H]1Oc2ncc(C#Cc3ccc(F)cc3)cc2C(=O)N([C@H](C)CO)C[C@H]1C was read as Env fusion inh 2.0[16.7 µM] and UUG fidelity -9.6.
COc1ccc(S(=O)(=O)Nc2ccc3c(c2)CC(=O)N([C@H](C)CO)C[C@H](C)[C@@H](CN(C)CC2CC2)O3)cc1 was read as Env fusion inh 12.6[16.7 µM] and UUG fidelity 24.2.
COCC(=O)N(C)C[C@@H]1Oc2ncc(C3=CCCCC3)cc2C(=O)N([C@H](C)CO)C[C@H]1C was read as Env fusion inh -10.8[16.7 µM] and UUG fidelity 0.6.
`CO[C@H]1CN(C)C(=O)c2cc(NC(=O)Nc3ccccc3)ccc2OC[C@H](C)N(C(C)=O)C[C@@H]1C` gave Env fusion inh 11.1[16.7 µM] and UUG fidelity 11.4.
For CCNC(=O)Nc1ccc2c(c1)C(=O)N(C)[C@@H]1CC[C@@H](CC(=O)NCc3ccccc3F)O[C@@H]1CO2 the results were Env fusion inh -5.8[16.7 µM] and UUG fidelity -1.4.
`C[C@H](CO)N1C[C@H](C)[C@H](CN(C)C(=O)c2ccc(F)cc2)Oc2ncc(C#CCN(C)C)cc2C1=O` gave Env fusion inh 20.6[16.7 µM] and UUG fidelity 10.4.
Screening COc1ccc(S(=O)(=O)N[C@@H]2CC[C@H](CC(=O)NCCc3ccccc3)O[C@@H]2CO)cc1 returned Env fusion inh -1.6[16.7 µM] and UUG fidelity 2.6.
Screening COCC#Cc1cnc2c(c1)C(=O)N([C@@H](C)CO)C[C@@H](C)[C@H](CN(C)S(=O)(=O)c1cccc(OC)c1)O2 returned Env fusion inh -13.0[16.7 µM] and UUG fidelity 19.1.
`COc1ccc(C(=O)Nc2ccc3c(c2)C(=O)N(C)C[C@H](OC)[C@@H](C)CN[C@@H](C)CO3)cc1` gave Env fusion inh 9.1[16.7 µM] and UUG fidelity -7.4.
Screening COCC(=O)N(C)C[C@@H]1Oc2cc(C3=CCCC3)ccc2S(=O)(=O)N([C@H](C)CO)C[C@@H]1C returned Env fusion inh -15.6[16.7 µM] and UUG fidelity 76.2.
For CCCC(=O)Nc1ccc2c(c1)C(=O)N(C)[C@H]1CC[C@H](CC(=O)Nc3ccccc3F)O[C@@H]1CO2 the results were Env fusion inh 10.2[16.7 µM] and UUG fidelity 17.2.
Screening C[C@@H]1CN([C@H](C)CO)C(=O)Cc2cc(NC(=O)Cn3cnnn3)ccc2O[C@H]1CN(C)Cc1ccc2c(c1)OCO2 returned Env fusion inh 18.6[16.7 µM] and UUG fidelity -6.7.
Screening C[C@@H]1CCCCO[C@H](CN(C)CC2CCCCC2)[C@@H](C)CN([C@H](C)CO)C(=O)c2cc(NS(=O)(=O)c3cn(C)cn3)ccc2O1 returned Env fusion inh 1.8[16.7 µM] and UUG fidelity 3.7.
For CCCC#Cc1cnc2c(c1)C(=O)N([C@@H](C)CO)C[C@H](C)[C@@H](CN(C)Cc1cccnc1)O2 the results were Env fusion inh 17.7[16.7 µM] and UUG fidelity -4.5.
Cc1noc(C)c1NC(=O)Nc1ccc2c(c1)C(=O)N([C@H](C)CO)C[C@H](C)[C@H](CN(C)C(=O)NC(C)C)OCCCC[C@H](C)O2 was read as Env fusion inh 3.1[16.7 µM] and UUG fidelity 6.3.
Screening CC(C)n1ncc2c(C(=O)Nc3cccc(S(=O)(=O)N(C)C)c3)cc(C3CC3)nc21 returned Env fusion inh 3.9 and UUG fidelity -2.5.
Screening C[C@H]1CN([C@@H](C)CO)C(=O)Cc2cc(NC(=O)Nc3ccccc3)ccc2O[C@@H]1CN(C)CC1CC1 returned Env fusion inh -5.1[16.7 µM] and UUG fidelity 26.2.
COc1ccc(S(=O)(=O)Nc2ccc3c(c2)C(=O)N([C@@H](C)CO)C[C@@H](C)[C@@H](CN(C)S(=O)(=O)c2ccc(Cl)cc2)OCCCC[C@H](C)O3)cc1 was read as Env fusion inh -1.9[16.7 µM] and UUG fidelity -6.8.
`O=C(CCN1CCCCC1)NCC[C@@H]1CC[C@H](NC(=O)c2ccc(F)cc2)[C@@H](CO)O1` gave Env fusion inh inconclusive and UUG fidelity 11.6.
Screening C[C@@H]1CN([C@@H](C)CO)C(=O)c2cc(NC(=O)C3CCCCC3)ccc2O[C@@H](C)CCCCO[C@@H]1CN(C)C(=O)Nc1ccc(F)cc1 returned Env fusion inh 12.1[16.7 µM] and UUG fidelity 2.8.
`C[C@@H]1CN([C@@H](C)CO)C(=O)c2cc(NS(=O)(=O)c3ccccc3)ccc2O[C@@H]1CN(C)Cc1ccc2c(c1)OCO2` gave Env fusion inh -1.7[16.7 µM] and UUG fidelity -7.8.
C[C@H](CO)N1C[C@H](C)[C@H](CN(C)CC2CC2)Oc2c(NC(=O)Nc3ccc(C(F)(F)F)cc3)cccc2C1=O was read as Env fusion inh -4.6[16.7 µM] and UUG fidelity 2.6.
`Cc1noc(C)c1NC(=O)Nc1ccc2c(c1)C(=O)N([C@@H](C)CO)C[C@@H](C)[C@H](CN(C)C(=O)Nc1ccc(C(F)(F)F)cc1)OCCCC[C@@H](C)O2` gave Env fusion inh -7.2[16.7 µM] and UUG fidelity -3.8.

4 entries picked at random from those above:
`C[C@H](CO)N1C[C@H](C)[C@H](CN(C)C(=O)c2ccc(F)cc2)Oc2ncc(C#CCN(C)C)cc2C1=O` gave Env fusion inh 20.6[16.7 µM] and UUG fidelity 10.4.
For C[C@H](CO)N1C[C@H](C)[C@@H](CN(C)CC2CC2)Oc2c(NS(=O)(=O)c3ccc(Cl)cc3)cccc2C1=O the results were Env fusion inh -21.9[16.7 µM] and UUG fidelity 2.3.
For CCCC#Cc1cnc2c(c1)C(=O)N([C@@H](C)CO)C[C@H](C)[C@@H](CN(C)C(=O)c1cccc(F)c1)O2 the results were Env fusion inh 1.2[16.7 µM] and UUG fidelity 4.9.
Screening COCC#Cc1cnc2c(c1)C(=O)N([C@@H](C)CO)C[C@@H](C)[C@H](CN(C)S(=O)(=O)c1cccc(OC)c1)O2 returned Env fusion inh -13.0[16.7 µM] and UUG fidelity 19.1.

(continued)
Screening C[C@H](CO)N1C[C@H](C)[C@@H](CN(C)Cc2ccc(C(=O)O)cc2)Oc2ccc(NC(=O)C3CC3)cc2CC1=O returned Env fusion inh 11.7[16.7 µM] and UUG fidelity -4.6.
Screening C[C@@H]1CN([C@H](C)CO)C(=O)c2cc(NS(C)(=O)=O)ccc2O[C@@H](C)CCCCO[C@@H]1CN(C)C(=O)CCCN(C)C returned Env fusion inh -9.1[16.7 µM] and UUG fidelity 9.8.
`C[C@@H]1CN([C@H](C)CO)C(=O)c2cccc(NC(=O)c3cnccn3)c2O[C@H]1CN(C)Cc1ccc(C(F)(F)F)cc1` gave Env fusion inh 5.7[16.7 µM] and UUG fidelity 9.3.
Screening C[C@@H]1CN([C@H](C)CO)C(=O)c2cccc(NC(=O)c3nc4ccccc4s3)c2O[C@H]1CN(C)CC1CC1 returned Env fusion inh -14.8[16.7 µM] and UUG fidelity 2.7.
For O=C(C[C@H]1CC[C@@H](NS(=O)(=O)c2ccc(F)cc2)[C@@H](CO)O1)N1CCN(c2ccccc2)CC1 the results were Env fusion inh 23.3[16.7 µM] and UUG fidelity -2.9.
`C[C@@H]1CN([C@H](C)CO)C(=O)c2cc(-c3ccccc3)cnc2O[C@H]1CN(C)C(=O)NC1CCCC1` gave Env fusion inh 4.3[16.7 µM] and UUG fidelity 8.6.
`C[C@H]1CN([C@@H](C)CO)C(=O)c2cc(NC(=O)Nc3ccc4c(c3)OCO4)ccc2O[C@@H]1CN(C)C(=O)Nc1ccc(C(F)(F)F)cc1` gave Env fusion inh -2.9[16.7 µM] and UUG fidelity -14.5.
Screening C[C@H](CO)N1C[C@H](C)[C@@H](CN(C)C(=O)Cc2ccccc2)OCCCC[C@H](C)Oc2ccc(NS(=O)(=O)c3cn(C)cn3)cc2C1=O returned Env fusion inh 3.0[16.7 µM] and UUG fidelity -1.1.
Screening C[C@@H]1CN([C@@H](C)CO)S(=O)(=O)c2ccc(C#CC3CC3)cc2O[C@@H]1CN(C)Cc1ccccn1 returned Env fusion inh 15.6[16.7 µM] and UUG fidelity -17.6.
CNC[C@@H]1Oc2ccc(NS(C)(=O)=O)cc2CC(=O)N([C@@H](C)CO)C[C@H]1C was read as Env fusion inh -3.1[16.7 µM] and UUG fidelity -23.8.
CC(C)NC(=O)Nc1ccc2c(c1)C(=O)N([C@H](C)CO)C[C@@H](C)[C@H](CN(C)C(=O)Nc1ccc(F)cc1)O2 was read as Env fusion inh -12.2[16.7 µM] and UUG fidelity -13.5.
O=S(=O)(N[C@@H]1CC[C@@H](CCn2cc(C3CC3)nn2)O[C@@H]1CO)c1ccc(F)cc1 was read as Env fusion inh 25.2[16.7 µM] and UUG fidelity -0.5.
COc1ccc(NC(=O)Nc2ccc3c(c2)C(=O)N([C@H](C)CO)C[C@H](C)[C@@H](CN(C)S(=O)(=O)c2ccc(OC)cc2)OCCCC[C@@H](C)O3)cc1 was read as Env fusion inh -20.0[16.7 µM] and UUG fidelity -14.3.
`C[C@@H]1CCCCO[C@H](CN(C)C(=O)CCC(F)(F)F)[C@@H](C)CN([C@@H](C)CO)C(=O)c2cc(NS(C)(=O)=O)ccc2O1` gave Env fusion inh 18.1[16.7 µM] and UUG fidelity 37.1.
For C[C@H](CO)N1C[C@H](C)[C@H](CN(C)CC2CCCCC2)Oc2ccc(NC(=O)CCCCCC(=O)Nc3ccccc3N)cc2CC1=O the results were Env fusion inh 6.7[16.7 µM] and UUG fidelity -3.3.
For O=C(C[C@H]1C[C@H]2c3cc(NC(=O)NC4CCCC4)ccc3O[C@H]2[C@H](CO)O1)NC1CCCC1 the results were Env fusion inh 10.1[16.7 µM] and UUG fidelity -9.5.
`CCCN1C[C@@H](C)[C@H](OC)CN(C)C(=O)c2ccc(NC(=O)Nc3c(C)noc3C)cc2OC[C@@H]1C` gave Env fusion inh 8.8[16.7 µM] and UUG fidelity 8.1.

From PubChem BioAssay
